RGS16-Gao HTS: RGS16-Galphao interaction regulator (human) | O15492+P09471 | bead-based flow cytometry RGS16-Galphao binding, fluorescence; actives lie on both sides | binding response (% of control), % at 10 µM | 0.38% of 220,000 active | AID 1441;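 active means below 25% or above 175%, edge rows of some plates excepted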;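 further: Galphao activated by GDP with aluminum fluoride before binding; 100% = wells without compound and 0% = beads without RGS; some results beyond the cut were filed as inactive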
Target sequence (O15492 whole entry, looked up): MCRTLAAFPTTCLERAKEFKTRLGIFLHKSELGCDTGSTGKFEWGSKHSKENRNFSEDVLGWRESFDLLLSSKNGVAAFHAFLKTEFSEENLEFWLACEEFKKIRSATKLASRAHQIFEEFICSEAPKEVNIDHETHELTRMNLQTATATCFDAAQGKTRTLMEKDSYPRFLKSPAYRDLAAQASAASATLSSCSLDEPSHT
Target sequence (P09471 whole entry, looked up): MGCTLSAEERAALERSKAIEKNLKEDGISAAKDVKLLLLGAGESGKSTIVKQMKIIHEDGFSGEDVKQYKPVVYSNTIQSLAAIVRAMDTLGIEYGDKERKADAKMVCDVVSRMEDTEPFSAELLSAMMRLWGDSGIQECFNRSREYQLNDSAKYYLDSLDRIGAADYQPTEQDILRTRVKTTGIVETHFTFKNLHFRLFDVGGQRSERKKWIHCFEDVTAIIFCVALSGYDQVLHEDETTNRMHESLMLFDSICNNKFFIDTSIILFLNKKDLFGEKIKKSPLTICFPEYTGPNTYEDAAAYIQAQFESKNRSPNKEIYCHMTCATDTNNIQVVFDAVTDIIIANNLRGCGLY
HSV augment: increases HSV replication in cells; HSV replication augmentation in cells, fold increase; 0.005% of 220,000 active; AID 1956; maximum fold increase;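 active means peak rise of 1.5-fold or more in the series; tested in PC3 cells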;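 further: first round at 10 µM; read as green reporter fluorescence; hits show the peak of a series up to 25 µM; 1 = signal of infected wells without compound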
PKD1 inh: inhibitors of human PKD1 kinase; PKD1 kinase fluorescence polarization assay; inhibition, %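 (about 10 µM by stock and volumes)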; 0.056% of 200,000 active; AID 797;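 active means inhibition of 50% or more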;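 further: controls were vehicle for no effect and a reference inhibitor for full effect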
Insulin prom inh: TRM-6 insulin promoter activity inhibition; TRM-6 cells (human fetal islet line), insulin promoter-eGFP reporter, imaging; reporter expression induced with tamoxifen; inhibition, % at 2 µM; 0.9% of 130,000 active; AID 1273;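 active means inhibition above the mean plus 3 SD, with well images judged a real hit on visual review, cut at about 60% in these data, passing the limit was not always enough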
GALR2 agonist: activates the human galanin receptor 2; O43603; GALR2-expressing cells, agonist activation read-out; activation, %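 (tested at 5 µM)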; 0.48% of 140,000 active; AID 803;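 active means above mean plus 3 SD of all compounds, about 5% in these data, not always enough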;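 further: 0% = vehicle buffer wells and 100% = reference agonist at full effect; tested in CHO reporter cells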
Target sequence (O43603 whole entry, looked up): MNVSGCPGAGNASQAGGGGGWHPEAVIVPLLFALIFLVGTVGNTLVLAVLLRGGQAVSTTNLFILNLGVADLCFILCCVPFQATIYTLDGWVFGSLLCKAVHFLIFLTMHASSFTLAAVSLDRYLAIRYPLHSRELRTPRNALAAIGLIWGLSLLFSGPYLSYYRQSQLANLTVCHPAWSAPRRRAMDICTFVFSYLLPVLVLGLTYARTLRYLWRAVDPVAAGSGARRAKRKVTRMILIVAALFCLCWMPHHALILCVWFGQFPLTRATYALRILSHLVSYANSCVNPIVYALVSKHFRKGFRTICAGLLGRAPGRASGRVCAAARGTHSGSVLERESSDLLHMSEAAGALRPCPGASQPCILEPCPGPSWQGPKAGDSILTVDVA
Insulin prom inh cell count: recorded beside Insulin prom inh, whose call it bears; normalized cell count, %; measured here: cell count, toxicity; reference of the scale not given here;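 cells exposed to compound for 48 h; stained nuclei by imaging scaled within each plate; lower means fewer cells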
HSV augment primary fold: also measured in HSV augment; calls as there; fold increase; compound at 10 µM; measured here: primary screen fold increase 10 uM; tested in PC3 cells;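 GFP signal in the first replicate; 1 = infected wells without compound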
* hit, by the source's call; i = inactive; . = not tested or not shown.

SMILES	RGS16-Gao HTS	HSV augment	HSV augment primary fold	PKD1 inh	Insulin prom inh	Insulin prom inh cell count	GALR2 agonist
CN(C)CCN(C(=O)c1ccc(Br)s1)c1nc2cc3c(cc2s1)OCCO3	93	i	1.1	4	.	.	.
CCN1CCCc2cc(CN(CCN3CCOCC3)C(=S)Nc3ccc(OC)cc3)ccc21	99	i	0.98	-1	-83	94	.
CC(=O)c1ccc(NC(=S)NCc2ccco2)cc1	111	i	1	-1	.	.	.
O=[N+]([O-])c1ccc(Nc2ccccc2F)nc1	106	i	1.1	5	.	.	.
O=Cc1ccc(OC(=O)C2CC(=O)N(c3ccc(F)cc3)C2)cc1 (stereo not given)	105	i	0.82	2	-31	83	-1.6
O=S1(=O)C=C(Sc2nnc(-c3ccccc3)o2)c2ccccc21	94	.	.	-7	-270	9	-3.0
CCOC(=O)c1cnc2nc(Cc3ccccc3)[nH]n2c1=O	103	i	0.99	-2	.	.	-2.4
Cc1ccccc1-c1nnc(-c2cccs2)o1	99	i	0.99	1	58	73	.
Clc1cccc(Cl)c1COn1nnc2ccccc21	57	i	1	-5	43	136	-1.7
CC(C)(C)n1ncc2c(=O)n(Cc3cccc(Cl)c3)cnc21	103	i	0.93	1	33	155	.
CC(C)Cc1nc(C#N)c(N2CCC(C(N)=O)CC2)o1	104	i	1.2	4	-46	68	-0.8
Cc1cc(C)n(S(=O)(=O)c2ccc3ccccc3c2)n1	105	i	1	14	27	88	-1.7
Cc1[nH][nH]c(=O)c1C(c1ccc(-c2cccc(C(=O)O)c2)o1)c1c(C)[nH][nH]c1=O	102	i	1	1	.	.	.
COc1ccc(NC2SC(=O)N(CC(=O)O)C2=O)cc1 (stereo not given)	104	i	0.84	6	.	.	-0.5
Cc1cc(NCCO)nc(-n2nc(C)cc2C)n1	101	i	0.97	-8	79*	61*	-0.1
COc1ccc(C(=O)NNC(=O)C(=O)Nc2ccc(C)c(Cl)c2)cc1	102	i	1	7	.	.	.
O=C(C[n+]1cccc(CNC(=O)c2ccc(OC(F)F)cc2)c1)c1ccccc1	100	i	1.2	6	-341	95	.
[O-]c1n[n+](-c2ccc(Cl)cc2)cc2ccccc12	97	i	1	6	.	.	.
O=C(Cc1nc2ccccc2[nH]1)c1ccc([N+](=O)[O-])cc1	95	i	1.2	.	.	.	.
CC(C)NC(=O)NC(=O)COC(=O)c1ccc([N+](=O)[O-])cc1Cl	100	i	0.88	0	.	.	.
COc1ccc(C(=O)Nc2nc(C)c(C)s2)cc1OC	102	i	1	-12	27	102	-0.3
CCC(=O)c1ccc(N2CCN(S(=O)(=O)c3ccccc3)CC2)c(F)c1	103	i	0.69	0	.	.	.
CCOc1ccc(C(=O)NCC(=O)OCc2cc(C(C)=O)ccc2OC)cc1	100	i	1	6	.	.	-1.0
COC(=O)C1=C(C)NC(=O)NC1c1ccc(N2CCC(c3ccccc3)=N2)cc1 (stereo not given)	110	i	1	-2	.	.	.
Cc1ccc(C(=O)OCC(=O)c2c[nH]c3ccccc23)cc1	121	i	0.84	-10	13	59	-1.3
N#CCc1ccc(OC(=O)c2cccnc2)cc1	107	i	1	.	.	.	.
CC(C)CC(=O)Nc1nc2ccc(S(C)(=O)=O)cc2s1	111	i	0.91	-4	.	.	.
CCCn1c(N)c(C(=O)CSc2nnc(Cc3ccccc3)o2)c(=O)n(C)c1=O	101	i	0.88	-6	-31	75	0.1
CCn1ccnc1CN1CCC(CO)(CCOc2ccccc2)CC1	103	i	0.8	-5	.	.	.
CCOc1ccc(N(CC(=O)OC)S(=O)(=O)c2c(C)noc2C)cc1	103	i	0.78	-6	.	.	-1.8
O=C(c1cnccn1)N1CCN(c2ccccc2)CC1	102	.	.	-6	-10	76	-1.1
COC1CC(C)NC(=S)N1 (stereo not given)	114	i	1.2	.	.	.	.
O=C(N/N=C/c1ccc2c(c1)OCO2)C1COc2ccccc2O1 (stereo not given)	110	i	0.65	5	.	.	-2.3
CC(=O)OC(C)(C)C#CCN1CCCC1	101	i	0.63	-3	19	112	-2.1
O=C(CCC1CCCN(c2ncccn2)C1)NCc1ccc(F)c(F)c1 (stereo not given)	74	i	1	7	.	.	.
O=c1[nH]c(CSc2ncc(-c3ccc(F)cc3)n2Cc2ccco2)nc2ccccc12	106	i	1	0	9	86	-1.0
NC(=O)NC(=O)COC(=O)/C=C/c1cccc(Br)c1	88	i	0.9	4	.	.	.
NCCc1nnc(SCc2ccccc2)o1	99	i	0.93	2	19	91	-2.5
CC(=O)NCCOc1c(C)cc(S(N)(=O)=O)cc1C	103	i	0.92	1	.	.	0.0
Cc1ccc(CNc2ccc3c(c2)ncn3C)cc1	102	i	1	-11	-14	108	-0.1

No new results follow: 12 of the compounds above.
SMILES	RGS16-Gao HTS	HSV augment	HSV augment primary fold	PKD1 inh	Insulin prom inh	Insulin prom inh cell count	GALR2 agonist
COC(=O)C1=C(C)NC(=O)NC1c1ccc(N2CCC(c3ccccc3)=N2)cc1 (stereo not given)	110	i	1	-2	.	.	.
Cc1ccc(C(=O)OCC(=O)c2c[nH]c3ccccc23)cc1	121	i	0.84	-10	13	59	-1.3
N#CCc1ccc(OC(=O)c2cccnc2)cc1	107	i	1	.	.	.	.
CC(C)CC(=O)Nc1nc2ccc(S(C)(=O)=O)cc2s1	111	i	0.91	-4	.	.	.
CCCn1c(N)c(C(=O)CSc2nnc(Cc3ccccc3)o2)c(=O)n(C)c1=O	101	i	0.88	-6	-31	75	0.1
CCn1ccnc1CN1CCC(CO)(CCOc2ccccc2)CC1	103	i	0.8	-5	.	.	.
CCOc1ccc(N(CC(=O)OC)S(=O)(=O)c2c(C)noc2C)cc1	103	i	0.78	-6	.	.	-1.8
O=C(c1cnccn1)N1CCN(c2ccccc2)CC1	102	.	.	-6	-10	76	-1.1
COC1CC(C)NC(=S)N1 (stereo not given)	114	i	1.2	.	.	.	.
O=C(N/N=C/c1ccc2c(c1)OCO2)C1COc2ccccc2O1 (stereo not given)	110	i	0.65	5	.	.	-2.3
CC(=O)OC(C)(C)C#CCN1CCCC1	101	i	0.63	-3	19	112	-2.1
O=C(CCC1CCCN(c2ncccn2)C1)NCc1ccc(F)c(F)c1 (stereo not given)	74	i	1	7	.	.	.

Next section
SMILES	RGS16-Gao HTS	HSV augment	HSV augment primary fold	PKD1 inh	Insulin prom inh	Insulin prom inh cell count	GALR2 agonist
O=C(Nc1cc(S(=O)(=O)N2CCOCC2)ccc1O)c1ccco1	98	i	0.99	-3	-34	99	-0.7
COc1ccccc1N1CCN(C(=O)c2cc(-c3ccc(Br)cc3)on2)CC1	106	i	0.92	-13	.	.	-0.8
C#CCN1C(=O)S/C(=C/c2cc(C)n(CC)c2C)C1=O	106	i	1.1	4	.	.	-2.3
CCN(C(=O)COC(=O)c1cc([N+](=O)[O-])ccc1N1CCCCC1)C1CCS(=O)(=O)C1 (stereo not given)	102	i	0.93	-7	.	.	.
CCOc1ccc(N(CC)C(=O)CCNC(=O)Cn2ccc3ccccc3c2=O)cc1	97	i	1	-4	14	93	-3.4
CC1(C)CC(=O)C(c2c[nH]c3ccccc23)C(=O)C1	104	i	1.1	4	.	.	.
O=C(OC1CCOC1=O)c1cc(-c2cccs2)nc2ccccc12 (stereo not given)	97	i	0.95	-9	.	.	.
COc1ccc(CN2C3CCCC2CC(NC(=O)/C=C/c2ccccc2)C3)cc1 (stereo not given)	109	i	0.82	-2	0	167	.
CNc1ccccc1C(C)(C)c1ccn[nH]1	99	i	0.9	-1	.	.	.
CCCCCCCc1c(C#N)c(N)[nH]c(=S)c1C#N	81	i	0.92	.	.	.	.
O=C(c1ccc2ccccc2c1)C1CCCN(C(=O)c2noc3c2CCCC3)C1 (stereo not given)	89	i	0.97	-4	.	.	.
COc1ccc(C2NC(=O)C(C)S2)cc1 (stereo not given)	99	i	0.84	0	21	99	-0.2
C#CCSc1ncc(-c2ccccc2)cn1	102	i	0.99	0	50	99	.
CCOc1ccccc1NC(=O)CCC(=O)Nc1ccc2nc(N3CCN(C)CC3)cc(C)c2c1	98	.	.	-3	3	101	0.0
Cc1cc(-n2c(C)cc(C(=O)CSc3nc4ccccc4c(=O)n3Cc3ccco3)c2C)no1	105	i	1.1	-8	11	50	0.8
CC(=O)Nc1ccc(CN2CCN(CCc3ccccc3)C(CCO)C2)cc1 (stereo not given)	97	i	1	7	.	.	.
CCN(CC)CCN(Cc1cc2cc(C)ccc2[nH]c1=O)C(=S)NCc1ccco1	111	i	1	-6	10	84	-0.6
O=C(/C=C/c1cccs1)Nc1ccc(Br)cn1	103	i	0.92	4	.	.	1.2
O=C(N=Nc1c(O)n(Cc2ccccc2)c2ccccc12)c1cc2ccccc2cc1O	104	i	0.63	-2	.	.	1.5
O=C(CSc1nnnn1C1CC2CCC1C2)Nc1ccnc2ccccc12 (stereo not given)	100	.	.	0	37	119	-0.4
Cc1ccc(NC(=O)CSc2nnc(-c3ccncc3)n2N)cc1C	99	i	1.4	-4	-29	137	-2.7
COc1ccc(C(=O)N2CCC(C(=O)Nc3ccc(OC)c(OC)c3)CC2)cc1	94	i	0.91	0	7	141	-2.0
O=C(/C=C/c1ccncc1)c1ccc(NC(=O)c2ccccc2F)cc1	113	i	0.59	1	-21	123	3.3
COc1ccc(Cn2nnnc2C(c2cc3cc(C)cc(C)c3[nH]c2=O)N2CCOCC2)cc1 (stereo not given)	105	i	1.2	-4	12	141	-1.4
COc1ccc(NC(=O)c2c(C(F)(F)F)nn(C)c2SCc2ccccc2Cl)cc1	109	i	0.99	-8	.	.	-1.8
O=C(NCCOc1ccccc1)c1n[nH]c(=O)c2ccccc12	96	i	0.9	-9	0	100	-1.9
Cc1nc2ccccc2c(=O)n1/N=C/c1cccs1	108	i	1.1	0	.	.	.
c1ccc(-c2nnc(CSc3nnc(-c4ccncc4)n3Cc3ccco3)o2)cc1	97	.	.	-7	-46	122	-3.2
Cn1c(CNC(=O)c2ccccc2F)nnc1SCC(=O)NCc1ccccc1	110	i	1.1	1	.	.	.
Cc1ccc(C)c(NC(=S)c2nc3ccccc3s2)c1	100	i	1	3	3	98	-1.8
O=C(COC(=O)COc1ccccc1Cc1ccccc1)Nc1cccnc1Cl	87	i	0.95	-14	21	80	0.6
CCOc1ccc2nc(N/C(N)=N/C(=S)Nc3cccc(OC)c3)nc(C)c2c1	94	i	0.86	.	.	.	.
O=C(CSc1nnc2ccccn12)c1ccccc1	88	i	1	-3	.	.	-2.2
Cc1cc(=O)n(C(NC(=O)c2ccccc2)C(=O)c2ccccc2)cn1 (stereo not given)	103	i	0.94	4	23	85	-0.6
Cc1ccccc1C(=O)NC1CCN(C(=O)Nc2ccccc2Cl)CC1	102	i	1.1	2	.	.	.
O=C(N/N=C/c1cc2c(cc1[N+](=O)[O-])OCO2)c1ccccn1	.	i	0.72	-8	-7	97	-1.6
CC(NC(=O)C(=O)N/N=C/c1ccc(Cl)cc1)c1ccccc1 (stereo not given)	106	i	1.1	-3	.	.	.
N#Cc1c(-c2ccccc2)nc(N2CCCCCC2)[nH]c1=O	15*	i	0.97	3	-245	67	-1.3
O=C(c1ccc(COc2c(F)c(F)c(F)c(F)c2F)o1)N1CCN(Cc2ccc3c(c2)OCO3)CC1	118	i	0.85	1	-288	111	0.6
COCCNC(=O)C(c1ccc(C)o1)N(C(=O)Cn1nnc2ccccc21)c1ccccc1 (stereo not given)	111	i	0.99	-5	.	.	.
CN(Cc1ccccc1)C(=O)c1cccc(NC(=O)c2ccco2)c1	99	i	0.92	-10	-56	164	-2.1
Cc1cc(-c2ccccc2)nc2oc3c(c12)NC(=O)CN(c1ccccc1)C3=O	99	i	0.94	.	.	.	.
CCC(C)c1ccccc1OCCCCN1CCCC1 (stereo not given)	109	i	0.9	-7	-15	108	-2.4
CCn1c(COc2ccc(C)cc2)nnc1SCc1nc2ccccc2[nH]1	103	i	1	1	29	65	-2.0
O=C(CNc1ccccc1)NN=C1CCCC1	101	i	0.95	2	-6	157	.
COc1ccc(OC)c(/C=N/NC(=O)CNC(=O)c2ccc(S(=O)(=O)N3CCCC3)cc2)c1	106	i	0.83	-2	0	148	.
COc1cc(NC(=O)CSc2nncn2C)cc(OC)c1OC	103	i	1.1	-13	11	55	.
N#CC1=C(N)SC(N)=C(C#N)C1c1ccc([N+](=O)[O-])cc1	91	i	0.88	8	11	57	-2.3
Cc1cc(C)cc(NC(=O)NCc2nnc(SCc3ccccc3)n2C)c1	101	i	1	-5	.	.	-0.8
CCN(CC)Cc1csc2ccc(Br)cc12	99	i	0.9	-2	.	.	0.6

Bioassay records as filed in PubChem BioAssay.
